Screening data deposited in PubChem by several laboratories.
MLL AF4-AF9 inh – blocks AF4 peptide binding to human AF9 | inhibition, % at 10 µM | actives 0.47% (n = 350,000) | AlphaScreen, biotin-AF4 peptide binding to FLAG-AF9 | P42568 | AID 651704;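 active = every replicate reaching a set inhibition limit, whatever the replicate mean, cut at about 25% in these data; inconclusive = mean inhibition reaches that limit but some replicates miss it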;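 also: 0% = plate neutral control median and 100% = total signal loss; the record names both 10 and 1 µM as test concentration; the first replicate is given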
Ecoli rRNA inh – inhibitors of bacterial rRNA selective over humanized ribosomes | E. coli WT GFP vs humanized-ribosome RFP mutants, fluorescence, 24 h; stronger effect = lower value; DMSO median 0, no signal -100 | GFP signal change (wild-type ribosome), % (concentration not given with the values) | actives 1.6% (n = 350,000) | AID 720706;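 active = significant combined selectivity score with lowered wild-type GFP, culture density cut under 30%, mutant RFP and density less affected; inactive = any of these conditions unmet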; also: one replicate is shown; some compounds called inactive have numbers as strong as hits
Ecoli growth – blocks Escherichia coli growth | OD600 absorbance (concentration not given with the values) | actives 0.21% (n = 330,000) | AID 1053175 | OD600, 23 h; stronger effect = lower value;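 active = OD600 absorbance below the run mean of sample wells minus 3.6 SD, in any replicate, cut at about 0.56 in these data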;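 also: stock transfer was 300 nL into about 60 µL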
HNF4A DNA FP – change in binding of human HNF4 alpha to DNA; HNF4a-FITC DNA binding, fluorescence polarization, 1 h; actives 0.3% (n = 360,000); AID 1224865; P41235; activity change, % at 10 µM; in the data active = activity change above about 30%, passing the limit was not always enough;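 also: controls were the assay level and a saturating level of protein; the project sought stronger binding though the title names inhibitors; some compounds called inactive have numbers as strong as hits; positive values seem to mean higher polarization but the record does not say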
Target sequence (P41235 whole entry, looked up): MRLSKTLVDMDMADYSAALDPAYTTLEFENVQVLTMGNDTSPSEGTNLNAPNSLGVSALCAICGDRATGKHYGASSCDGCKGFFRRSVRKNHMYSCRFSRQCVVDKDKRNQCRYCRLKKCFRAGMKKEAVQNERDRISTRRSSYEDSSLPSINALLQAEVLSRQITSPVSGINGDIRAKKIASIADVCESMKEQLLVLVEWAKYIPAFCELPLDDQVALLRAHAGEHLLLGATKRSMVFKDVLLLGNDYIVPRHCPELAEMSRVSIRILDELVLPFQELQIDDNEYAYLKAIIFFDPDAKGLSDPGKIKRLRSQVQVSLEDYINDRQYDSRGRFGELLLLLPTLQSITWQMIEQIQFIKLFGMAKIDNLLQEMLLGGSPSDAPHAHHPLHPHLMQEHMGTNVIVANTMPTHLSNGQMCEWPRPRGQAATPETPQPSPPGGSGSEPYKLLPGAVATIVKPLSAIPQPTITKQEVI
ALR inh – blocks human ALR sulfhydryl oxidase activity. P55789. purified ALR, DTT oxidation, H2O2 HRP-luminol luminescence. inhibition, % (test concentration not listed). actives 3.8% (n = 290,000);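 active = mean and each replicate at 75% or more; inconclusive = only one of the two met; inactive = neither met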;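 also: stock transfer was 7.5 nL into about 7.5 µL; 0% = neutral wells and 100% = wells with inactivated enzyme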
Target sequence (P55789 whole entry, looked up): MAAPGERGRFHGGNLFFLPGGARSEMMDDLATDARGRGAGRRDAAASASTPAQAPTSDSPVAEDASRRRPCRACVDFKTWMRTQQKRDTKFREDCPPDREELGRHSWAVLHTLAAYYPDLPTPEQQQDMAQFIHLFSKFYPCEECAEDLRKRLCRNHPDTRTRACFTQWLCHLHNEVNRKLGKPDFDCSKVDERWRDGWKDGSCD
Vif TR-FRET – inhibitors of Vif binding to APOBEC3G peptide, primary screen, biochemical, TR-FRET, GST-Vif 1-94, biotin-A3G peptide, dose response retest (AID 1117319). TR-FRET GST-Vif / biotin-A3G peptide binding; higher % means a stronger effect; test concentration not given here; strong numbers were not always called active. one-dose inhibition, %; IC50 in µM for titrated hits. actives 0.57% (n = 260,000);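 active = above the screen mean plus three standard deviations and confirmed in dose response; inconclusive = results disagree or hit not tested in dose response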;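 also: Vif residues 1-94 fused to GST binding biotinylated APOBEC3G peptide 110-148; 0% = full assay without inhibitor and 100% = GST in place of GST-Vif; retest series ran down from 100 µM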
FGF22 binding – shifts melting point of recombinant human FGF22; Q9HCT0; calls only at 9.99 µM; actives 1.5% (n = 340,000); recombinant FGF22 thermal shift, SYPRO orange fluorescence; percent of sucrose octasulfate shift, DMSO zero;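 active = melting point raised past a set limit in the mean and every replicate; inconclusive = no clear call; three in four hits are not shown here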
Target sequence (Q9HCT0 whole entry, looked up): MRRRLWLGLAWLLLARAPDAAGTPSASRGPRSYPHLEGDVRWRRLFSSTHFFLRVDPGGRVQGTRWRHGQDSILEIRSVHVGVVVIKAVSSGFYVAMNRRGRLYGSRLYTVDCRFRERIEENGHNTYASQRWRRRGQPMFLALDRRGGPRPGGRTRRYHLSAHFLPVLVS
Ecoli rRNA inh OD600 – recorded beside Ecoli rRNA inh, whose call it bears; OD600 change, %; measured here: OD600 growth;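 optical density of the mix in the first replicate; 0 = DMSO median and -100 = no signal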
Ecoli rRNA inh RFP – also measured in Ecoli rRNA inh; calls as there; RFP signal change, %; measured here: RFP humanized mutant strains;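 first replicate; 0 = DMSO median and -100 = no signal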
Starred values were filed as active, the others as inactive; i = inactive; ? = inconclusive; . = no result given; & = joins results of further samples. Some of the compounds tested; the hit share may differ from the screen's.

SMILES	MLL AF4-AF9 inh	Ecoli rRNA inh	Ecoli rRNA inh OD600	Ecoli rRNA inh RFP	Ecoli growth	HNF4A DNA FP	ALR inh	Vif TR-FRET	FGF22 binding
Cc1cccc(Nc2nc(NCc3ccco3)c3ccccc3n2)c1	6.7	-33	-71	-11	0.43*	1.6	.	16%	i
COc1c(C)cc(C(=O)C2CCCN(C(=O)c3ccc4[nH]ccc4c3)C2)cc1C (centres undefined)	1.6	-20	-10	-1.2	0.73	1.8	1	.	i
CCc1ccc(N2C(=O)CC(c3ccc(F)cc3)C3=C2COC3=O)cc1 (centres undefined)	.	.	.	.	0.72	3.7	-4	.	.
CC(=O)OC(C)C1C2=C(C(=O)CC1(C)O)C(=O)c1c(ccc(-c3ccc4c(c3O)C(=O)C3=C(C4=O)C(C(C)OC(C)=O)C(C)(O)CC3=O)c1O)C2=O (centres undefined)	19	.	.	.	.	10	.	0.73µM*	i
Cc1ccc(S(=O)(=O)N(C)C[C@@H]2Oc3c(NC(=O)C4CC4)cccc3C(=O)N([C@@H](C)CO)C[C@@H]2C)cc1	-1.4&0.6	0&-18	7&-4	2.2&-1.4	0.71	1.4	-2	-3%	i
Cc1ccc(S(=O)(=O)N2CCN(CC(=O)N3CCCC3)CC2)c(C)c1	0.1	2	0	-1.6	0.67	0.1	-4	.	i
COc1ccc(S(=O)(=O)N2CCCCC2)cc1NC(=O)c1ccc(=O)[nH]c1	-2.6	7	9	0.6	0.7	-1.5	17	5%	i
COCC#Cc1ccc2c(c1)O[C@@H](CN(C)C(=O)COC)[C@H](C)CN([C@H](C)CO)S2(=O)=O	-2.8	4	14	-3.6	.	.	.	.	i
CNC(=O)CC1C(=O)N(c2ccc(F)cc2)C(=S)N1NC(=O)c1ccc(Br)cc1 (centres undefined)	-0.4	-19	-20	-6.0	0.65	1.4	25	5%	i
C[C@@H]1CN([C@@H](C)CO)C(=O)CCCn2nncc2CO[C@H]1CN(C)S(=O)(=O)c1ccccc1	-1.8&0.3&-0.9	15&1	9&1	4.1&-2.7	.	-0.3	.	3%	i
CC(=O)CCc1ccc2oc(C(=O)O)c(C)c2c1	.	.	.	.	0.78	1.0	-4	-4%	.
O=C1C=C(OCCF)CC(c2ccccc2C(F)(F)F)O1 (centres undefined)	-1.3	-9	-2	-0.7	.	-2.5	.	.	i
CC(C)NC(=O)N(C)C[C@H]1Oc2ccc(NS(=O)(=O)c3cccs3)cc2C(=O)N([C@H](C)CO)C[C@@H]1C	0.8	0&13	5&18	-2.0&12	.	2.0	-1	.	i
COc1ccc(CN(C)C[C@@H]2OCCCC[C@H](C)Oc3ccc(NC(=O)NC4CCCCC4)cc3C(=O)N([C@H](C)CO)C[C@@H]2C)cc1	4.5	-4	-5	2.6	.	.	.	.	i
CC(=O)C1C(c2ccccc2Cl)NC(=O)NC1(O)C(F)(F)F (centres undefined)	-1.9	7	6	0.1	0.72	1.5	-9	3%	i
COc1ccc(C)cc1N(CC(=O)Nc1ccc2c(c1)OCCO2)S(C)(=O)=O	3.6	5	-6	-6.2	0.64	3.9	.	-10%	i
CC(C)NC(=O)N(C)C[C@@H]1Oc2cc(C#C[C@H](C)O)ccc2S(=O)(=O)N([C@@H](C)CO)C[C@H]1C	-3.6	1	4	-2.9	.	.	.	.	i
COc1ccc(NC(=O)N(C)C[C@H]2Oc3ccc(NS(=O)(=O)c4ccccc4)cc3C(=O)N([C@H](C)CO)C[C@H]2C)cc1	-2.3	-7	-8	3.3	.	.	.	.	i
CCCCC(CCC(=O)Nc1ccc(C(=O)OC)cc1)C(=O)O (centres undefined)	.	.	.	.	0.73	3.5	-1	23%	.
O=C(Cn1c(=O)oc2cc(S(=O)(=O)N3CCCCC3)ccc21)N1CCc2ccccc21	-2.3	7	14	1.4	0.73	8.4	.	1%	i
CCCn1cc(S(=O)(=O)c2ccccc2)c(=O)c2cc(F)c(N3CCN(C)CC3)cc21	0.5	5	3	1.5	0.65	-3.5	3	.	i
O=C(C[C@H]1C=C[C@@H](NS(=O)(=O)c2cccc(F)c2)[C@H](CO)O1)NCc1ccc2c(c1)OCO2	1.3	0	-6	-1.0	.	.	.	.	i
O=C(CCCOc1ccccc1)Nc1ccccc1C(F)(F)F	.	.	.	.	0.67	-0.6	-9	25%	.
NC(=O)C1CCN(C(=O)CSc2ncccn2)CC1	0.1	29	28	1.7	0.7	2.6	-4	10%	i
CC(C)c1ccc(NC(=S)NCCc2c[nH]c3ccccc23)cc1	10	-51	-72	-28	0.65	-2.3	-4	26%	i
COC(=O)[C@]12C[C@H](CC(=O)N3CCN(C(=O)c4ccco4)CC3)C(=O)N(CCC3=CCCCC3)C1=C[C@H](COCc1ccccc1)O[C@@H]2C	1.2	4	0	12	.	.	.	.	i
O=C(O)CCNc1nc(-c2ccccc2)c2cc(Br)ccc2n1	-3.7	5	12	3.7	0.69	1.1	-11	-28%	i
Cc1noc(C)c1NC(=O)N(C)C[C@@H]1Oc2ncc(C#CC3CC3)cc2C(=O)N([C@H](C)CO)C[C@H]1C	1.3	7	3	-0.5	.	.	.	.	i
CCN(CC)S(=O)(=O)c1ccc(Cl)c(C(=O)Nc2nncs2)c1	.	.	.	.	0.74	0.5	1	14%	.
C=CCn1c(=N)c(S(=O)(=O)c2ccc(C)c(C)c2)cc2c(=O)n3ccccc3nc21	-2.5	11	1	-2.8	0.72	2.1	-1	.	i
COC(=O)c1cc(NC(=O)CCc2c(C)nc3ncnn3c2C)cc(C(=O)OC)c1	.	.	.	.	0.67	0.8	-4	-3%	.
Cc1ncc(CN2CCCC(C(=O)Nc3ccc(-c4cccc(F)c4)cc3)C2)cn1 (centres undefined)	1.2	-7	-21	5.2	0.68	1.4	-1	.	i
CC(OC(=O)CN(C)S(=O)(=O)c1ccc(Cl)cc1)C(=O)Nc1cccc(Cl)c1 (centres undefined)	.	.	.	.	0.71	3.0	-10	?	.
O=C(CCn1nnc2ccccc21)NNC(=O)C1CCCCC1	-1.5	10	7	0.3	0.66	1.3	-1	-8%	.
Cc1cccc(-c2noc(CCc3ccccc3)n2)c1	-3.8	-4	-7	-1.0	0.75	-5.5	.	3%	i
COc1ccc(N2CCN(c3nc4ccccn4c(=O)c3/C=C(\C#N)S(=O)(=O)c3ccccc3)CC2)cc1	2.4	5	12	-0.9	.	2.6	-10	.	i
CCOC(=O)c1sc(-c2ccc(F)cc2)cc1N	.	.	.	.	0.64	-1.2	1	-18%	.
CCc1nc2ccc(C(=O)N(C)Cc3ccccc3)cn2c1N(C)Cc1ccc(OC)cc1	-3.1	-7	-36	-3.4	.	1.4	.	.	i
COc1cccc(C(c2c(NC(=O)c3ccccc3)sc(C)c2C)N2CCN(C)CC2)c1 (centres undefined)	.	.	.	.	0.68	0.4	-2	.	.
COc1cccc(CCNC(=O)CC2C(=O)NCCN2Cc2ccc(Cl)c(F)c2)c1 (centres undefined)	0.9	.	.	.	0.66	-0.3	2	.	.
Cc1nn(-c2ccccc2)c(Cl)c1/C=C/C(=O)c1ccccc1	.	.	.	.	0.68	-5.6	5	7%	.
CCOc1ccc(C2C(C(=O)c3ccco3)=C(O)C(=O)N2Cc2cccnc2)cc1 (centres undefined)	.	.	.	.	0.73	6.1	.	-2%	.
CCOC(=O)CNc1nc(C#N)nc(N2CCOCC2)n1	.	.	.	.	0.73	-2.6	-12	16%	.
N#Cc1nc(-c2ccc(OCc3ccccc3)cc2)oc1NCc1cccnc1	.	.	.	.	0.72	0.1	1	-6%	.
CCOC(=O)N1CCC(N2C(=O)c3ccc(C(=O)O)cc3C2=O)CC1	.	.	.	.	0.69	-0.3	3	-2%	.
O=C(Nc1cccc(NC(=O)c2cccs2)c1)c1ccc2c(c1)OCCO2	-1.8	-31	-31	-6.8	0.67	-1.9	0	.	i
Cc1ccc(S(=O)(=O)N(C)C[C@@H]2OCCCC[C@H](C)Oc3ccc(NS(=O)(=O)c4cccs4)cc3C(=O)N([C@H](C)CO)C[C@H]2C)cc1	-1.9	-1	-10	-0.4	.	.	.	.	i
CN(C)c1ccccc1C(=O)N1CCCC(C(=O)c2ccc3ccccc3c2)C1 (centres undefined)	6.4	-35	-69	-3.1	0.71	2.9	-12	-14%	i
CCCC(=O)N(CCN(Cc1ccccc1)C(=O)CCC)Cc1ccccc1	.	.	.	.	0.74	-0.3	-16	-6%	.
Cc1ccc2nc3c(c(Nc4cccc(O)c4)c2c1)CCC3	8.2	5	-20	-4.0	0.62	8.3	98*	-3%	i

The list continues:
SMILES	MLL AF4-AF9 inh	Ecoli rRNA inh	Ecoli rRNA inh OD600	Ecoli rRNA inh RFP	Ecoli growth	HNF4A DNA FP	ALR inh	Vif TR-FRET	FGF22 binding
O=C(Nc1ncccc1O)c1cccc(S(=O)(=O)N2CCCC2)c1	-13	3	16	1.5	0.7	-0.7	.	10%	.
CC1=C(C(=O)OCC(C)C)C(c2ccsc2)C2=C(CCCC2=O)N1 (centres undefined)	.	.	.	.	0.71	2.0	-13	0%	.
Cc1nnc(-c2cccc(Br)c2)c2cn(-c3ccccc3)nc12	.	.	.	.	0.64	144	-7	-32%	.
Cc1ccc(-c2c(C(=O)N/N=C/c3ccc(OC(C)C)cc3)nnn2-c2nonc2N)cc1	-1.5	-2	3	5.6	.	3.8	7	3%	i
O=C1C(=O)N(Cc2ccco2)C(c2cccs2)/C1=C(\O)c1cccc([N+](=O)[O-])c1 (centres undefined)	-4.4	17	5	1.1	0.64	-4.4	-2	.	i
CC(C)NC(=O)N1C[C@H]2[C@@H](c3ccccc31)[C@@H](CO)N2C(=O)c1ccccc1F	-1.4	0	-4	-1.4	.	.	.	.	i
COc1cccc(CN(C)C(=O)C(CCSC)NS(=O)(=O)c2ccc3c(c2)OCCO3)c1OC (centres undefined)	5.0	0	-3	3.8	0.67	0.9	-1	-8%	i
